miR-21 FLuc – raises the signal of a miR-21 reporter; HeLa miR-21 FLuc reporter, luciferase, 48 h; Potency, µM (series often up to 38.3 µM), inactives show at the top dose reporter change, positive = more light; 340,000 tested, under 10 active; AID 2288; active = well fitted rising curve with a large enough effect; inconclusive = small, poorly fitted or top-dose-only effect; inactive = no such curve, though single readings can be large or run the other way;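 note: % of control where 0% means no effect; miR-21 action dims this reporter so a rising signal means less miR-21 action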
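HeLa cells stably expressing CMV-driven firefly luciferase with a downstream miR-21 binding sequence, endogenously expressing miR-21, were treated with titrations (up to about 40uM final) for 48 hours at 37 degree Celsius. Luciferase luminescence was read after lysis.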
Active calls of the source: *; ? = inconclusive. A portion of the library; count on the stated rates, not on these rows.

SMILES	miR-21 FLuc
Cc1cccc(NC(c2nnc(-c3ccccc3)o2)c2ccc(F)cc2Cl)c1C (stereo not drawn)	5%
Cc1nn(-c2ccc(N3CCCC3)nn2)c(C)c1CCC(=O)NCc1ccccc1F	-6%
COc1cc(C2C(=O)N(C3CCCCCC3)CC(=O)N2CCc2ccccc2)ccc1OC(C)C (stereo not drawn)	-6%
O=C(CN1C(=O)COc2ccc(S(=O)(=O)N3CCCC3)cc21)N1CCN(c2ccc(Cl)cc2)CC1	-3%
CCN(CC)CCCNc1nc(SC)nc2sc3c(c12)CCN(C)C3	-18%
Cc1ccc(NC(=O)NCCc2c(C)nn(C)c2C)c(Cl)c1	-6%
O=C(NC1CCCC1)c1ccc2c(c1)N(Cc1ccc(C(F)(F)F)cc1)C(=O)c1ccccc1S2	11%
Cc1ccc(CNC(=O)CSc2cc(C)[nH]c(=O)n2)cc1	2%
CCN(CC)S(=O)(=O)c1ccc2c(c1)nc(CN(C)C(=O)c1cccc(Cl)c1)n2C	-2%
CC1=C(C(=O)Nc2ccc(C)c(C)c2)C2(CCCCCC2)OC1=O	-6%
Cc1ccc(N2CC(NC(=O)C3CCCCC3)CC2=O)cc1 (stereo not drawn)	-2%
O=C(COCc1cc(-c2cccs2)on1)NCc1ccccc1Cl	2%
COc1ccc(OC)c(CCNC(=O)c2ccc3[nH]c(C)c(C)c3c2)c1	-11%
COc1cccc(N2CCN(c3c4c(nc5nncn35)CCC4)CC2)c1	26%
CCc1cccc(C)c1NC(=O)c1cccc(C(=O)Nc2c(C)cccc2CC)c1	1%
Cc1ccc(C(=O)Nc2onc3c2CCCC3)cc1	?
O=C(Cn1c(=O)n(Cc2ccc(F)cc2)c(=O)c2sc3ccccc3c21)NCc1ccccc1	-4%
Cc1ccc(C)n1-c1c(C(=O)NCC(C)c2ccccc2)sc2ncccc12 (stereo not drawn)	13%
COc1ccccc1C(=O)Nc1ccc(OCc2cc(=O)n3ccc(C)cc3n2)cc1	-8%
COc1ccc(NC(=O)C2CCN(C(=O)c3sc4nc[nH]c(=O)c4c3C)CC2)c(OC)c1	-8%
CCOC(=O)c1scc(-c2ccccc2)c1S(=O)(=O)Nc1ccccc1OC	0%
CC(=O)c1ccc(NC(=O)Cn2c(=O)nc(-c3ccccc3)c3cc(Cl)ccc32)cc1	-14%
CCOc1ccc(CNC(=O)Cn2nc(C)c3sc4ccccc4c3c2=O)cc1	1%
O=C(NC1CCCCC1)c1ccc(Cn2c(SCc3cccc(F)c3)nc3cccnc32)cc1	14%
COc1ccc(-c2nc3ccccc3o2)cc1NC(=O)c1ccc(-c2ccc(Br)cc2)o1	1%
COC(=O)c1c(Oc2ccc(OC)cc2)nnc(-c2ccccc2)c1-c1ccccc1	?
Cc1ccccc1OCCCCn1c(CCNC(=O)C(C)(C)C)nc2ccccc21	14%
COc1cccc(C2CC(=O)Nc3cc4c(cc32)OCCO4)c1OC (stereo not drawn)	18%
CCCCOc1ccc(CNC(=O)CN2CCSc3ccccc32)cc1	-4%
Cc1ccc2nc(-c3ccc(NC(=O)COc4ccc(Br)cc4Br)cc3)sc2c1	0%
CC(C)(C)C(=O)Nc1cccc(C(=O)OCc2cc(=O)n3nc(C4CC4)sc3n2)c1	0%
CCCCN1C(=O)CN(C2CCCCC2)C(=O)C1c1ccc(OC(C)C)c(OC)c1 (stereo not drawn)	-9%
Cc1cccc(C(=O)Nc2ccc(-c3nc4ccccc4s3)cc2Cl)c1	-1%
CC(=O)Nc1cccc(NC(=O)CSc2nccn2Cc2ccc3c(c2)OCO3)c1	0%
CCN1C(=O)c2ccccc2S(=O)(=O)c2ccc(C(=O)NCc3ccccc3)cc21	-4%
CCc1ccc(C(=O)c2cnc3ccc(F)cc3c2S(=O)(=O)c2ccccc2)cc1	?
CCc1ccc(NC(=O)N(Cc2c[nH]c3ccccc23)C2CCCCC2)cc1	-29%
CCOC(=O)c1ccccc1NC(=O)Cn1c(=O)n(-c2ccc(CC)cc2)c(=O)c2c(C)c(C(=O)N(C)C)sc21	-8%
O=C(Nc1cccc(-c2nc3ccccc3o2)c1)c1cc([N+](=O)[O-])ccc1N1CCOCC1	14%
Cc1cccc(C)c1NC(=O)Cn1nnc(C(=O)Nc2c(C)cccc2C)c1N	2%
Cc1cccc(N2CCN(C(=O)CN3C(=O)COc4ccc(S(=O)(=O)N5CCCCCC5)cc43)CC2)c1C	22%
COc1ccc(OC)c(CCNC(=O)Cn2ncc3c([nH]c4ccccc43)c2=O)c1	-6%
CCCCNC(=O)CSc1nc2cc3c(cc2c(=O)n1CCCCCC(=O)NCCc1ccc(OC)c(OC)c1)OCO3	0%
Cc1ccccc1CSc1cn(CC(=O)N2CCCC2)c2ccccc12	2%
Cc1cc2ccccc2n1CCNC(=O)c1cccc(Br)c1	9%

Molecules from the list above that contain an aryl thioether with sulfur outside any ring (6):
SMILES	miR-21 FLuc
CCN(CC)CCCNc1nc(SC)nc2sc3c(c12)CCN(C)C3	-18%
Cc1ccc(CNC(=O)CSc2cc(C)[nH]c(=O)n2)cc1	2%
O=C(NC1CCCCC1)c1ccc(Cn2c(SCc3cccc(F)c3)nc3cccnc32)cc1	14%
CC(=O)Nc1cccc(NC(=O)CSc2nccn2Cc2ccc3c(c2)OCO3)c1	0%
CCCCNC(=O)CSc1nc2cc3c(cc2c(=O)n1CCCCCC(=O)NCCc1ccc(OC)c(OC)c1)OCO3	0%
Cc1ccccc1CSc1cn(CC(=O)N2CCCC2)c2ccccc12	2%

Following part.
SMILES	miR-21 FLuc
CCc1nnc2c(N3CCN(c4cccc(C)c4)C(C)C3)nc3ccccc3n12 (stereo not drawn)	-4%
COc1ccc(C2=NC(C)(C)N(CC(=O)Nc3cccc(C)c3)C2=O)cc1	27%
Cc1ccc(C(=O)NCc2ccccc2)cc1NC(=O)c1nsc2ccccc12	-15%
COc1ccc(-c2cn3nc(N4CCCC(C(=O)Nc5cc(C)ccc5C)C4)sc3n2)cc1 (stereo not drawn)	-1%
CC(C)c1ccc2oc(-c3ccc(NC(=O)c4cc5ccccc5o4)cc3)nc2c1	-25%
O=S(=O)(c1ccc(-c2csc(=Nc3ccc(OC(F)(F)Cl)cc3)n2CCCO)cc1)N1CCCC1	?
COc1ccc(-c2nc3ccc(C)cn3c2Nc2ccc3c(c2)OCO3)cc1	-11%
CCOc1ccccc1NC(=O)Cn1c(=O)n(CCCC(=O)NCc2ccc(C)cc2)c(=O)c2ccccc21	-6%
CCn1cc(C(=O)N2CCN(c3ccc(F)cc3)CC2)c(=O)c2cc(S(=O)(=O)N3CCOCC3)ccc21	-3%
CCN(c1ccc(OC)cc1)S(=O)(=O)c1c(C(=O)N2CCCCCC2)c(C)n(C)c1C	1%
Cn1nnnc1SCCNCc1ccc(OCc2ccc(Cl)cc2)cc1	-3%
CCc1cccc(NC(=O)CN(c2ccc(C)c(C)c2)S(=O)(=O)c2ccsc2C(=O)OC)c1	9%
Cc1cn2c(=O)cc(COC(=O)COc3ccccc3C)nc2s1	-2%
Cc1ccccc1CSc1nc2cccnc2n1Cc1ccc(C(=O)NC2CC2)cc1	-17%
O=C(COc1ccccc1)N(Cc1cccnc1)c1nc2ccc(Cl)cc2s1	-15%
Cc1nc2cc(C(=O)O)ccc2n1-c1ccc(C(C)C)cc1	-39%
COc1cc2c(cc1OC)n(CC(=O)c1cc(C)ccc1C)c(=O)n1nc(CCn3nc(C)cc3C)nc21	-3%
Cn1c(NCCCO)nc2c1c(=O)n(Cc1cccc(F)c1)c(=O)n2C	-7%
Cc1cc2c(=O)c(C(=O)c3ccncc3)cn(CC(=O)Nc3cccc(C)c3C)c2cc1C	-1%
COc1cccc(-c2csc(-c3c(N)c(C(=O)c4ccc5c(c4)OCO5)n4ccccc34)n2)c1	-1%
O=C(Cn1cc(S(=O)(=O)Cc2ccccc2Cl)c2ccccc21)Nc1ccc(F)cc1F	11%
CCOc1ccc(S(=O)(=O)Nc2ccc3oc(C)c(C(=O)OCCOC)c3c2)cc1	25%
COc1ccc(S(=O)(=O)N(CC(=O)NCc2ccccc2)c2ccc(C)cc2)cc1OC	-5%
COc1ccc(CNC(=O)Cc2coc3ccc(C(C)C)cc23)cc1	-11%
COc1cccc(NC(=O)CSC2=Nc3ccccc3C3=NC(CC(=O)NCc4ccc5c(c4)OCO5)C(=O)N23)c1 (stereo not drawn)	11%
COc1ccccc1NC(=O)c1nc(SCc2ccc(F)cc2)ncc1Cl	9%
COc1ccc(-c2noc(COc3cc(C)ccc3C)n2)cc1OC	0%
O=C(c1ccc2c(c1)N(Cc1ccc(Cl)cc1)C(=O)c1ccccc1S2(=O)=O)N1CCOCC1	8%
CCOC(=O)c1c(S(=O)(=O)N2CCC(C(=O)Nc3cccc(C#N)c3)CC2)c(C)n(C)c1C	16%
O=C1C(=O)N(C2CCN(S(=O)(=O)c3ccc(F)cc3)CC2)CCN1Cc1ccccc1	-1%
COc1ccc(NC(=O)CSc2nc3ccccc3n2CC(=O)N(C)C2CCCCC2)cc1	-8%
O=C(Cc1ccc(NC(=O)N2CCSc3ncccc32)cc1)NCc1ccccc1	-2%
CCOc1ccc(OCC)c(NC(=O)C2CCN(S(=O)(=O)c3cn(C)cn3)CC2)c1	-6%
Cc1cc(Oc2c(C(F)(F)F)oc3c(CN4CCC(C)CC4)c(O)ccc3c2=O)cc(C)c1Cl	1%
CCOC(=O)c1sc2ccccc2c1S(=O)(=O)Nc1cc(OC)ccc1OC	0%
COC(=O)c1cc(C)nc2c1c(=O)nc(SCc1cc(C)ccc1C)n2C1CC1	4%
COc1ccc(-c2cc(OC(=O)c3ccc(Cl)cc3)c3c(C)oc(C)c3c(=O)c2)cc1	1%
CCOc1ccc(NC(=O)N2CCC(N3CCCCC3)CC2)cc1	-4%
CCN1CCN(C(=O)c2c(C)nn(-c3ccc(F)cc3)c2-n2cccc2)CC1	-7%
CCCCOC(=O)CSc1nnc(-c2ccccc2)o1	0%
CCC1CN(C(=O)N2CCC(C(=O)O)CC2)c2cc(C)ccc2O1 (stereo not drawn)	1%
Cc1ccc(C(NC(=O)Cc2cccs2)C(=O)Nc2ccc(C(C)C)cc2)cc1 (stereo not drawn)	0%
CC(C)CNc1ncnc2onc(-c3ccc(Cl)cc3)c12	-17%
O=S(=O)(NCCc1csc(-c2cccc(F)c2)n1)c1cc(F)ccc1F	-2%
CCCNC(=O)c1c(NC(=O)c2ccc(C)cc2)sc2c1CCCCC2	-3%
COc1ccc(CNc2nc(-c3ccco3)nn2C(=O)c2ccccc2Cl)cc1	-45%
Cc1ccc(C)c(-c2nnc(NC(=O)c3ccc4c(c3)OCCO4)o2)c1	2%
Cc1ccc(NC(=O)NCc2cccn2Cc2ccccc2)cc1F	2%
Cc1nn2c(=O)cc(COC(=O)c3ccccc3NC(=O)c3cccs3)nc2s1	-1%
Cc1cc2c(n1-c1ccc(C(=O)NCCc3ccc(Cl)cc3)cc1)CCCC2	?
Cc1nn2c(C)c(C(=O)N3CCN(c4ccccc4)CC3)cnc2c1-c1ccccc1	-5%
Cc1cccc2sc(N(Cc3cccnc3)C(=O)CCS(=O)(=O)c3ccccc3)nc12	19%
COc1cccc(-c2nc(S(=O)(=O)c3ccc(C)cc3)c(NCc3ccccc3)o2)c1	-6%
Cc1cccc(N2CCN(C(=O)c3c(C)oc4nc(C)nc(N5CCCC5)c34)CC2C)c1 (stereo not drawn)	9%
CCOC(=O)c1cccnc1SCC(=O)Nc1ccc(C)cc1C	-47%
O=S(=O)(NCCS(=O)(=O)N1CCN(c2ccccc2F)CC1)c1ccc(Cl)cc1	7%
Cc1cccc(NC(=O)C2CCCN(S(=O)(=O)c3ccc(Br)s3)C2)c1 (stereo not drawn)	1%
COc1ccc(N2CCN(C(CNC(=O)C(=O)NCc3ccc(F)cc3)c3cccnc3)CC2)cc1 (stereo not drawn)	-6%
COc1cccc(C(=O)NCCc2csc(-c3ccc(Cl)cc3)n2)c1	3%
Cc1ccc(CN2CCC(CNC(=O)c3cnn(-c4ccccc4)c3C3CCN(C(=O)OC(C)(C)C)CC3)CC2)cc1	-3%

Some of the entries above, reformatted:
| compound | miR-21 FLuc |
| --- | --- |
| Cc1nn2c(C)c(C(=O)N3CCN(c4ccccc4)CC3)cnc2c1-c1ccccc1 | -5% |
| COc1cccc(-c2nc(S(=O)(=O)c3ccc(C)cc3)c(NCc3ccccc3)o2)c1 | -6% |
| Cc1ccc(C)c(-c2nnc(NC(=O)c3ccc4c(c3)OCCO4)o2)c1 | 2% |
| CCOC(=O)c1cccnc1SCC(=O)Nc1ccc(C)cc1C | -47% |
| Cc1cc2c(n1-c1ccc(C(=O)NCCc3ccc(Cl)cc3)cc1)CCCC2 | ? |

Carrying on.
SMILES	miR-21 FLuc
Cn1c(=O)[nH]c(=O)c2c1nc(N1CCOCC1)n2Cc1ccccc1	-20%
O=S(=O)(c1ccc(Br)cc1)c1nnn2c1nc(NCc1cccs1)c1sccc12	-16%
Cc1ccccc1Nc1c(-c2c[nH]c3ccccc23)nc2ccccn12	-29%
CCOc1cc(/C=C(\C#N)C(=O)Nc2ccccc2C)ccc1OCc1cc(=O)n2nc(CC)sc2n1	-4%
COc1ccc(C)cc1-n1c(-c2ccc(Cl)cc2)cc2c1CC(C)(C)CC2=O	-3%
CCCCn1c(=O)c2oc3ccccc3c2n(Cc2ccc(OC)cc2)c1=O	-5%
CCN1CCN(CCCNC(=O)c2cnn(-c3ccc(OC)cc3)c2C2CCN(C(=O)OC(C)(C)C)CC2)CC1	-1%
O=c1c2cccnc2n(Cc2cccc(F)c2)c(=O)n1Cc1ccc(F)cc1	-1%
CCCNC(=O)C1CCC(Cn2c(=O)c3sccc3n(Cc3cccc(OC)c3)c2=O)CC1 (stereo not drawn)	-3%
Cc1ccc(NC(=O)CSc2nc3ncccc3[nH]2)cc1F	-51%
COc1cccc(NC(=O)N(Cc2cn(C)c3ccccc23)C2CCCCC2)c1	-24%
COc1ccc(NC(=O)Cn2c(=O)n(CCc3ccccc3)c(=O)c3sc4ccccc4c32)cc1	-32%
